Bioassay records from PubChem.
Tg IFNy HTS – T. gondii growth inhibition with IFN-gamma, primary screen, cell-based. Toxoplasma gondii growth in IFN-gamma-treated host cells; active compounds read low; reference of the scale not given here. 3.8% of 69,000 active. activity change, negative = inhibition, %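 (about 20 µM by stock and volumes)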;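 active = below -70%; inconclusive = fit judged invalid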;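 also: host cells are HeLa cells infected with Toxoplasma gondii; parasite growth read as luciferase light; one replicate is shown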
Numbers without * were called inactive; i = inactive; ? = inconclusive; & = joins results of further samples. Some of the compounds tested; the hit share may differ from the screen's.

SMILES	Tg IFNy HTS
Cc1cc(C)c2c(N3CCCC3)nc(C(=O)N3CCC(N4CCCCC4)CC3)nc2n1	25
Cc1nc2nnc3ccc(C(=O)N(C)C)cc3c2n1-c1ccccc1	-3
CNc1ncc(C(=O)N2CCCC(C(=O)c3cc(C)c(OC)c(C)c3)C2)cn1 (stereo unspecified)	-2
Cc1cccc(Nc2ccc(C3CCCN(C(=O)CCc4nnc(C(C)C)o4)C3)nc2)n1 (stereo unspecified)	0
COc1ccc(-c2nc[nH]c2-c2ccccc2)cc1CN(C)C	-4
COc1ccccc1C(=O)N1C[C@@H]2[C@H](c3ccccc31)[C@H](CO)N2CC1CCCC1	5
CC(C)c1nc2ccc(NC(=O)CC3NC(=O)N(C4CCCCC4)C3=O)cc2s1 (stereo unspecified)	18
O=C(C[C@H]1CC[C@@H]2[C@H](COC[C@H](O)CN2S(=O)(=O)c2cccc(F)c2)O1)NCc1ccncn1	6
c1ccc(N2CCN(CCn3cccn3)c3ncccc3C2)nc1	-3
Cc1cc(C)c2c(=O)n(Cc3nc(-c4cccc(Cl)c4)oc3C)c(=O)n(-c3ccccc3)c2n1	1
O=C(Cc1cccs1)N1CCc2c([nH]c3ccccc23)C1c1ccc(F)cc1 (stereo unspecified)	-17
CC(C)C(=O)C1c2c(ncn2C(C)C)CCN1C(=O)c1cccnc1 (stereo unspecified)	-5
CCc1ccccc1NC(=O)c1c(O)c2cccnc2n(-c2cccc(F)c2)c1=O	-104*
C=CCn1c(=S)sc2c(C(C#N)C#N)ncnc21	-102*
COc1ccc2c3c([nH]c2c1)[C@H](CO)NCC31CN(Cc2cc(F)ccc2F)C1	-49
O=C1CN(c2ccccc2)C(=S)N1C(=O)c1ccccc1	257
CCOc1ccc(CC(=O)N2CCC3(CC2)Nc2ccccc2-n2cccc23)cc1OCC	-7
CCc1ncc(C(=O)N(CC)Cc2c(F)cccc2Cl)cn1	0
CCc1ccc(NC(=O)c2c(O)c3cccnc3n(-c3ccccc3)c2=O)cc1	86
O=C(c1coc(COc2ccccc2F)n1)N1CCS(=O)(=O)CC1	-1
CS(=O)(=O)N1CC[C@@H](OCC2CC2)[C@@H]1Cc1ccncc1	-6
CCS(=O)(=O)N1CC[C@H]2C[C@H](c3nc(C)no3)O[C@H]2C1	-8
COC(=O)c1sc(C(C)(C)C)cc1CSc1ccccn1	-67
Cc1ccccc1-c1nc(Cn2ccn3nc(-c4ccc5c(c4)OCO5)cc3c2=O)c(C)o1	58
COCC(=O)Nc1ccc2c(c1)C(=O)N(C)[C@@H]1CC[C@H](CC(=O)N3CCc4ccccc4C3)O[C@H]1CO2	-10
Cc1cc(C)c(S(=O)(=O)N2CCC(C(=O)NCCc3csc(-c4ccccc4)n3)CC2)c(C)c1	-51
COc1ccc(N2CCCN(CC3CCN(C(=O)c4cn(C)nc4C)CC3)CC2)cc1	6
CCOCc1ccc(C(=O)N2CCC(O)(Cn3ccnc3C)CC2)cc1	75
N#Cc1cccc(C(=O)N2C3COCC2CC(OCC2CC2)C3)c1 (stereo unspecified)	-33
CC(c1cccc(-c2ncc(F)cn2)c1)N(C)C (stereo unspecified)	-4
CCOc1ccc(C(=O)NCCc2csc(-c3cccc(F)c3)n2)cc1OCC	54
CCOc1ccccc1-c1nc(Cn2ccn3nc(-c4cccs4)cc3c2=O)c(C)o1	-87*
O=C(NCCc1csc(-c2cccc(F)c2)n1)c1ccc(F)c(F)c1	-42
Cc1ccc2c(c1C)-n1cccc1C1(CCN(C(=O)c3cccc(F)c3)CC1)N2	25
Cc1nc(-c2ccc3c(c2)OCO3)cc(C(C)C)n1	-72*
CCc1csc(CNC2CCc3ccc(OC)cc3C2)n1 (stereo unspecified)	4
O=C(CSC12CC3CC(CC(C3)C1)C2)N1CCCn2cncc2C1	-3
Cc1cccc(C2CN(C)CCc3c2cc(O)c(O)c3Cl)c1 (stereo unspecified)	-9
NC(=S)c1cnc(-c2ccncc2)nc1N	148
C=CCOCC1CN(C2CCOC2)Cc2ccnn2C1 (stereo unspecified)	71
N#CCN1CC2(CCN(S(=O)(=O)c3cccs3)CC2)c2ccccc21	6
Cn1nc(C(=O)O)c2ccccc2c1=O	59
COc1cccc(-c2cn3nc(-c4cccs4)sc3n2)c1	i
C[C@H](CO)N1C[C@H](C)[C@@H](CN(C)C(=O)[C@H]2CCCN2C)OCc2ccccc2-c2ccccc2C1=O	-32
COc1ccccc1-c1nccn1C(Cn1ccnc1)c1ccccc1 (stereo unspecified)	4
COc1cc(Nc2nc(-c3nnc(-c4cccc(Cl)c4)o3)nc3ccccc23)cc(OC)c1	208
C[C@H]1CC(=O)N[C@H](c2ccccc2)C/C=C\C[C@@H](c2ccccc2)NC1=O	-4
CNC(=O)[C@@H]1CCO[C@H]2CCN(Cc3scnc3C)C[C@H]21	-11
Cc1cc(C)c(S(=O)(=O)Nc2ccccc2C(F)(F)F)c(C)c1	10&11
COc1ccc(-c2nc3c(s2)CN(C(=O)Nc2cccc(C)c2)CC3)cc1OC	-28
O=C(NCc1ccc(F)cc1)N1CCC2(CC1)Nc1ccccc1-n1cccc12	409
Cn1ccnc1CN1CC[C@@H](NS(C)(=O)=O)[C@H]1Cc1cccnc1	1
Cc1noc(C)c1C(=O)N1CC[C@@H](c2ccc3ccccc3c2)[C@H](O)C1	-36
COc1ccc(-c2nc(CSc3nc4c(=O)[nH]cnc4n3-c3ccc(C)cc3)c(C)o2)cc1OC	30
CCN1CCCC1CN(Cc1ccccn1)Cc1ccc(Sc2ncccn2)o1 (stereo unspecified)	16
COc1ccc(-c2nnc(SCc3csc(C)n3)o2)cc1OC	-8
CCNC(=O)[C@@H]1C[C@H](N)CN1C(=O)c1ccnc(OC)c1	9
C[C@@H]1CN([C@H](C)CO)C(=O)c2ccccc2-c2ccccc2CO[C@@H]1CN(C)S(=O)(=O)c1cn(C)cn1	-4
O=C(NCCc1csc(-c2ccc(Cl)cc2)n1)C(=O)Nc1ccccc1F	-52
O=C1CCc2cc(S(=O)(=O)N3CCN(C(=O)C45CC6CC(CC(C6)C4)C5)CC3)cc3c2N1CCC3	-55
Carrying on:
SMILES	Tg IFNy HTS
O=C(Cc1ccccc1)NCCc1csc(-c2ccc(C(F)(F)F)cc2)n1	140
O=C(O)c1cccnc1CN(Cc1ccc2c(c1)OCO2)C1CC1	23
Cc1cc(NC(=O)c2cc(C(C)(C)C)oc2C)nc(C)n1	90
COCC(=O)N1[C@H](C#N)[C@H](c2ccc(C#Cc3ccccc3F)cc2)[C@H]1CO	-35
CCn1c(C2CCCN(C(=O)c3coc4c3C(=O)CCC4)C2)nn(C)c1=O (stereo unspecified)	2
OC[C@H]1[C@@H](c2ccc(-c3cccc(F)c3)cc2)[C@@H]2CN(Cc3cncnc3)CCCCN12	1
CCc1ccc(-c2noc(-c3nnn(Cc4nc(-c5ccccc5OC)oc4C)c3C)n2)cc1	7
CCOC(=O)c1c(C)noc1-c1csc(COc2ccc(Cl)cc2)n1	-3
Cc1noc(C)c1S(=O)(=O)N(C)C[C@H]1OCc2cn(nn2)CCCC(=O)N([C@@H](C)CO)C[C@H]1C	62
O=C(Cn1c(=O)cc(C(=O)N2CCCCC2)c2ccccc21)Nc1ccc(F)cc1F	5
CC(=O)c1ccc(CN(C)Cc2nc3ccc(Cl)cc3[nH]2)cc1	-4
Cc1nc(CN2CC[C@H]3CO[C@@H](CN(C)C(C)C)[C@@H]3C2)cs1	98
O=C(NCc1cn2c(n1)SCC2)c1cccc2ccnn12	-1
CN(C)CCOCC1CN(C(=O)c2cnccn2)Cc2ccnn2C1 (stereo unspecified)	-59
CC(C)Oc1ccc(CNC(=O)c2nc(N3CCOCC3)c3ccccc3n2)cc1	-79*
O=C(O)c1ccc(C2CCN(CC(=O)N3CCCCCC3)C2)cc1 (stereo unspecified)	1
OC1(c2ccccc2)CCN(Cc2nc(-c3cccnc3Cl)no2)C2CCCCC21 (stereo unspecified)	55
COc1ccc(C(=O)N(Cc2ccc(N(C)C)cc2)C2(C(=O)NCc3ccccc3)CCN(C(C)=O)CC2)cc1	-34
CO[C@@H](C(=O)N(C)C[C@H]1OCc2ccccc2-c2ccccc2C(=O)N([C@@H](C)CO)C[C@H]1C)c1ccccc1	-12
CNS(=O)(=O)c1ccc(CN2CCN(Cc3cccc(F)c3)CC2)cc1	-3
Cc1n[nH]c(C)c1CCN1CCC(N2CCCC2=O)CC1	39
CSc1ccc(-c2noc(-c3nnn(Cc4nc(-c5cccc(C)c5)oc4C)c3C)n2)cc1	17
NS(=O)(=O)c1ccc(Cl)c(S(N)(=O)=O)c1	18
Cc1cccc(S(=O)(=O)N2CC[C@@H]3[C@H](CO)N(C)c4ccc(Br)cc4[C@@H]32)c1	-2
Cc1ccc(NC(=O)c2c(O)c3cccnc3n(-c3ccc(F)cc3)c2=O)cc1	38
O=S(=O)(Cc1ccccc1)N1CCC2(CCN(Cc3ccc(Cl)cc3)C2)C1 (stereo unspecified)	-5
CN(C)CCNC(=O)c1nc2c(s1)CCCN2c1ncccn1	?
COc1ccnc(N2CCCC(CO)(Cc3ccc(F)cc3)C2)n1 (stereo unspecified)	-56
C[C@@H](NC(=O)C[C@H]1C=C[C@@H](NC(=O)c2cccnc2)[C@H](CO)O1)c1ccccc1	-33
CCOC(=O)c1cnc2c(ccc3[nH]snc32)c1=O	-61
C[C@H]1CN([C@@H](C)CO)C(=O)c2cc(/C=C/c3ccccc3)cnc2O[C@H]1CN(C)S(=O)(=O)c1ccccc1F	-63
CCn1c(=O)c(C(=O)Nc2ccccc2OC)c(O)c2ccccc21	70
CCc1cnc(N2CC3(CCN(S(=O)(=O)C4CC4)C3)C2)nc1	9
Cc1nccn1CC1(O)CCN(C(=O)CCc2ccc3c(c2)OCO3)CC1	59
Cc1ccccc1CNc1nc(-c2nnc(-c3ccccc3)o2)nc2ccccc12	-90*
CO[C@H]1CN(C)C(=O)c2ccc(NS(=O)(=O)c3ccc(C)cc3)cc2OC[C@@H](C)N(C)C[C@@H]1C	11
CCN(CCN1CCCC1)C(=O)c1ccc(-n2cccc2)cc1	-14
COc1cc(C)nc(Oc2ccc(OCCOc3ccccc3)nn2)n1	8
O=C(c1cccnc1)N1CCc2c(CN3CCCC3)n[nH]c2C1	17
COc1ccccc1CCCNC1CCCNC1 (stereo unspecified)	-6
COc1ccc(C2(C(=O)NCCC3CCCN(C)C3)CC2)cc1 (stereo unspecified)	-46
CCN(C[C@H]1N[C@H](CO)[C@@H]1c1ccccc1)C(=O)c1ccncc1	-5
O=C(c1cccs1)N1CC[C@@]2(C1)C(=O)NC[C@H]2COc1cccnc1	-6
CCN(C[C@@H]1N[C@@H](CO)[C@@H]1c1ccccc1)C(=O)c1ccncc1	6
Cn1c(=O)c(-c2noc(-c3ccc(Cl)cc3)n2)cn(-c2ccccc2)c1=O	-6
C[C@H]1CN([C@@H](C)CO)C(=O)c2cc(NS(=O)(=O)c3ccc(F)cc3)ccc2O[C@H]1CN(C)C(=O)Nc1ccccc1	-19
O=S(=O)(c1cccc(F)c1)N1CC[C@@H]2[C@H]1c1cc(C#Cc3ccccc3F)ccc1N[C@@H]2CO	-48
O=c1nc(SCc2ccc(Cl)cc2)nc(-c2ccccc2)[nH]1	-44
CSc1cccc(CN(C)C(=O)CC2COCCN2)c1 (stereo unspecified)	1
COc1ccc(-c2nc(Cn3ccn4nc(-c5ccc(Cl)cc5)cc4c3=O)c(C)o2)cc1	41
O=c1ccc2c([nH]1)CCN(Cc1nccs1)CC2	52
CC1CCN(S(=O)(=O)c2ccc3c(c2)CCC(=O)N3CC(=O)NC2CCCC2)CC1	22
O=C(NC1CC1)c1nc(C(=O)N2CCN(c3ccccn3)CC2)cs1	-58
COC1CC2CC1CN2C(=O)Cc1cccc(F)c1 (stereo unspecified)	-16
COc1ccccc1-c1cc2c(=O)n(Cc3nc(-c4ccc(Cl)cc4)oc3C)ccn2n1	318
Cn1ccnc1CNS(=O)(=O)c1ccc2c(c1)c(=O)n(C)c(=O)n2C	49
Cc1nn(-c2ccccc2)nc1C(=O)c1c(C)[nH]n(-c2ccccc2)c1=O	71
CCOc1ccc(OCC)c(NC(=O)C2=C(C)C(=O)OC23CCN(CC)CC3)c1	153
CCn1c(C2CCN(S(=O)(=O)c3cn(C)c(C)n3)CC2)nn(C)c1=O	56
COc1cc(Nc2nc(-c3nnc(-c4cccc(C)c4)o3)nc3ccccc23)cc(OC)c1	-130*
Nc1ccccc1SCc1noc(-c2cccs2)n1	148

Gathered by group, those above with a Cl atom (14)
SMILES	Tg IFNy HTS
Cc1cc(C)c2c(=O)n(Cc3nc(-c4cccc(Cl)c4)oc3C)c(=O)n(-c3ccccc3)c2n1	1
CCc1ncc(C(=O)N(CC)Cc2c(F)cccc2Cl)cn1	0
Cc1cccc(C2CN(C)CCc3c2cc(O)c(O)c3Cl)c1 (stereo unspecified)	-9
COc1cc(Nc2nc(-c3nnc(-c4cccc(Cl)c4)o3)nc3ccccc23)cc(OC)c1	208
O=C(NCCc1csc(-c2ccc(Cl)cc2)n1)C(=O)Nc1ccccc1F	-52
CCOC(=O)c1c(C)noc1-c1csc(COc2ccc(Cl)cc2)n1	-3
CC(=O)c1ccc(CN(C)Cc2nc3ccc(Cl)cc3[nH]2)cc1	-4
OC1(c2ccccc2)CCN(Cc2nc(-c3cccnc3Cl)no2)C2CCCCC21 (stereo unspecified)	55
NS(=O)(=O)c1ccc(Cl)c(S(N)(=O)=O)c1	18
O=S(=O)(Cc1ccccc1)N1CCC2(CCN(Cc3ccc(Cl)cc3)C2)C1 (stereo unspecified)	-5
Cn1c(=O)c(-c2noc(-c3ccc(Cl)cc3)n2)cn(-c2ccccc2)c1=O	-6
O=c1nc(SCc2ccc(Cl)cc2)nc(-c2ccccc2)[nH]1	-44
COc1ccc(-c2nc(Cn3ccn4nc(-c5ccc(Cl)cc5)cc4c3=O)c(C)o2)cc1	41
COc1ccccc1-c1cc2c(=O)n(Cc3nc(-c4ccc(Cl)cc4)oc3C)ccn2n1	318
